A488 autofl: qHTS Assay for Spectroscopic Profiling in A488 Spectral Region. max dye equivalency, M. AID 591, 2007. 59,000 compounds, 0.1% hits. compound autofluorescence, A488 spectral region, dye equivalency; stronger effect = higher value; active = above 10 nM dye equivalent; inconclusive = 1 to 10 nM; inactive = 1 nM or less; about half of its hits are not listed in these tables;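 further: highest value over a series up to 38 µM; compound alone in buffer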
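Autofluorescence read at ex 480/em 540 nm after 15 min RT in 100 mM Tris pH 8.0; compound signal normalized to A488 standard series on each plate, reported as dye-equivalent concentration at each test concentration.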
TSHR agonist: qHTS Assay for Agonists of the Thyroid Stimulating Hormone Receptor; AID 926, 2007; Thyrotropin receptor (Homo sapiens), P16473; Potency, µM (top dose mostly 57.1 µM), for the others: top-dose activation, usual class: activators; HEK293-CNG-TSHR cells (CNG channel as cAMP sensor), membrane potential dye, cAMP; 73,000 compounds, 0.48% hits; active = well fitted activation curve of enough size with the parental cells flat; inconclusive = any curve in the parental cells; inactive = parental cells flat and receptor cells flat or falling; further: potency means the concentration at half of the fitted maximal effect; % of control where 0% means no effect; weak receptor curves with flat parental cells got no call and are not listed
Target sequence (P16473 whole entry, looked up): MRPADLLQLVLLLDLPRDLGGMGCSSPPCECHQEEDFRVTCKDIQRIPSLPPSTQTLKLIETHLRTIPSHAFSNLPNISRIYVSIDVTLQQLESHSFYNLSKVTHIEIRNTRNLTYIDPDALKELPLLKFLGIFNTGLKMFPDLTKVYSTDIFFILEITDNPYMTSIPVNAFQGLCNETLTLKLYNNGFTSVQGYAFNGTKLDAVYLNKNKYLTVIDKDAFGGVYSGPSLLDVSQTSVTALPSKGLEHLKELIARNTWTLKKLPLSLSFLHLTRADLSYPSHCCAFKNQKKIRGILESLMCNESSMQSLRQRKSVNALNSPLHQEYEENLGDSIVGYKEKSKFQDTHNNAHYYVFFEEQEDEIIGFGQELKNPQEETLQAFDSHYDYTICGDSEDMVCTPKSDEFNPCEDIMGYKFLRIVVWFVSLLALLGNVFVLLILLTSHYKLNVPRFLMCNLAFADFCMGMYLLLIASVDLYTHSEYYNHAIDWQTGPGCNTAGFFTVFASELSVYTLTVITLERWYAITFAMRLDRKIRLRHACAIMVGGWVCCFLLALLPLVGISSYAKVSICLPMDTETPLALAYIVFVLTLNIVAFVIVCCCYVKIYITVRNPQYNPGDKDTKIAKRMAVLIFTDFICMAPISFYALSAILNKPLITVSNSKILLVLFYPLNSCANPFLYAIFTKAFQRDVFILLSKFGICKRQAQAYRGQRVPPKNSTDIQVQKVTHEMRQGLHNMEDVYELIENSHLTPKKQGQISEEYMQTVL
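HEK 293 cells stably expressing TSHR and a cAMP-gated CNG channel; parental CNG-only cells as counterscreen. Cells preloaded 60 min with membrane potential dye plus 100 uM RO 20-1724, then compound 30 min; fluorescence read at 590 nm.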
AID923: qHTS Assay for Allosteric/Competitive Inhibitors of Caspase-1: Spectroscopic Profiling in AFC Spectral Region. compound fluorescence, AFC spectral region (405/520 nm); almost no hit is shown here. Potency, µM (doses to about 57.5 µM), for the others: at the top dose fluorescence increase, usual class: activators. 75,000 compounds, 1.1% hits; active means well fitted activation curve with a large enough effect; inconclusive means small, poorly fitted or top-dose-only effect;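 further: potency means the concentration at half of the fitted maximal effect; 0% is about no effect; scaled to a free AFC standard on each plate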
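Titrations up to 57 uM read every 20 sec for 3 min (405/520 nm) with 50 nM caspase 1 and 5 uM Ac-WEHD-AFC, pH 7.5 HEPES buffer. Fluorescence-vs-time intercept gave baseline, scaled against on-plate AFC standard.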
A647 fluor: qHTS Assay for Spectroscopic Profiling in A647 Spectral Region. AID 592, 2007. 59,000 tested, under 10 active. Compound fluorescence, A647 channel (570/671 nm), Tris buffer. max dye-equivalent concentration, M; active means above 1 µM dye equivalent; inconclusive means 0.1 to 1 µM; inactive means 0.1 µM or less;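 further: values scaled relative to a standard on each plate; highest value over a series up to 38 µM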
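Each compound's intrinsic fluorescence at 570 nm excitation and 671 nm emission is measured across its concentration series in 100 mM Tris, pH 8.0, after 15 min at room temperature, and reported relative to an A647 curve.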
Resorufin fluor: qHTS Assay for Spectroscopic Profiling in Resorufin Spectral Region | Compound fluorescence, resorufin region 547/598 nm, buffer; stronger effect = higher value | max dye-equivalent concentration, M | 59,000 compounds, 0.04% hits; active = above 10 nM dye equivalent; inconclusive = 1 to 10 nM; inactive = 1 nM or less; a few of its hits are not listed in these tables; further: highest value over a series up to 38 µM
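Intrinsic fluorescence profiled in the resorufin window (ex 547 nm, em 598 nm) after 15 min at room temperature in pH 8.0 Tris buffer (100 mM); responses normalized against a six-point resorufin standard series as dye-equivalent concentration.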
Active calls of the source: *; [ ] = dose if it differs, or a comment. An excerpt (hit frequency here may not be typical).

CCOC(=O)CSc1nnc(-c2cccs2)n1-c1ccccc1 was read as A488 autofl inactive, TSHR agonist inconclusive, AID923 -0.5%, A647 fluor 3.7e-08 and Resorufin fluor inactive.
Screening CN(C(=O)c1ccccc1)C1(C)CCS(=O)(=O)C1 (stereo not drawn) returned A488 autofl inactive, TSHR agonist 1%, AID923 -1.8%, A647 fluor 1.5e-08 and Resorufin fluor inactive.
Screening Cc1cccc(CSC2=NCCN2C(=O)c2ccc(Br)o2)c1 returned TSHR agonist inconclusive and AID923 4.7%.
Screening COCCNC(=O)c1noc2c1CCc1cc(OC)ccc1-2 returned A488 autofl inactive, TSHR agonist 0%, AID923 -1.5%, A647 fluor 2e-08 and Resorufin fluor inactive.
`CCCOc1ccc(C(=O)NCc2ccco2)cc1` gave TSHR agonist -4% and AID923 4.4%.
COCCOC(=O)C1=C(C)NC(=O)N(C(C)=O)C1c1ccc(Cl)cc1 (stereo not drawn) was read as A488 autofl inactive, AID923 -0.3%, A647 fluor 4.8e-09 and Resorufin fluor inactive.
Screening CN(c1ccccc1C(=O)N1CCN(c2cccc(Cl)c2)CC1)S(C)(=O)=O returned A488 autofl inactive, AID923 0.1%, A647 fluor 2.1e-09 and Resorufin fluor inactive.
`CCN1CCN(c2ccc(NC(=O)c3ccc4c(c3)OCO4)cc2)CC1` gave A488 autofl inactive, TSHR agonist -10%, AID923 -2.4%, A647 fluor 1e-09 and Resorufin fluor inactive.
CCCC(=O)Nc1ccc(C(=O)O)cc1NC(=O)CCC was read as A488 autofl inactive, TSHR agonist 10%, AID923 -0.5%, A647 fluor 5e-09 and Resorufin fluor inactive.
For O=C(CSc1nc2ccccc2c(=O)n1CC1CCCCC1)N1CCOCC1 the results were A488 autofl inactive, A647 fluor 3.1e-09 and Resorufin fluor inactive.
Screening COc1cccc(NC(=O)CNC(=O)c2ccc(F)cc2)c1 returned A488 autofl inactive, TSHR agonist -3%, AID923 1.5%, A647 fluor 3.4e-08 and Resorufin fluor inactive.
`O=C(Cn1cc2c(n1)CCCC2)NCc1cccc(Cl)c1` gave TSHR agonist 17% and AID923 -5.0%.
For Cc1cccc(-n2c(=O)cc(N3CCN(c4ccc(F)cc4)CC3)[nH]c2=O)c1 the results were TSHR agonist inconclusive and AID923 2.6%.
`COc1ccc2c(c1)CCc1c(C(=O)NCc3ccc(F)cc3)noc1-2` gave TSHR agonist -2% and AID923 0.7%.
Screening COCCCn1c(SCC(=O)NC(C)C)nnc1-c1ccccc1 returned A488 autofl inactive, TSHR agonist 4%, AID923 1.1%, A647 fluor 7.7e-09 and Resorufin fluor inactive.
Screening Cc1ccc(-n2cnnn2)c2cccnc12 returned A488 autofl inactive, TSHR agonist 4%, AID923 -0.1%, A647 fluor 5.5e-08 and Resorufin fluor inactive.
`CC(=O)N=C1SC2CS(=O)(=O)CC2N1c1cccc(Cl)c1Cl` (stereo not drawn) gave A488 autofl inactive, TSHR agonist -1%, AID923 -0.3%, A647 fluor 8.2e-09 and Resorufin fluor inactive.
Screening CCCCCC(=O)O[C@H](CC(=O)O)C[N+](C)(C)C returned TSHR agonist 5% and AID923 -3.6%.
`CC(c1ccccc1)C1NC(C(=O)O)CS1` (stereo not drawn) gave A488 autofl inactive, TSHR agonist 0%, AID923 1.0%, A647 fluor 1.4e-08 and Resorufin fluor inactive.
COC(=O)N1CCC[C@@]2(CCN(Cc3cc(C(F)(F)F)cc(C(F)(F)F)c3)C2)C1 was read as A488 autofl inactive, TSHR agonist 7%, AID923 0.3%, A647 fluor 1e-09 and Resorufin fluor inactive.
`CC1CCN(CCn2c(=S)[nH]c3ncccc3c2=O)CC1` gave A488 autofl inactive, TSHR agonist 5%, AID923 2.8%, A647 fluor 1e-09 and Resorufin fluor inactive.
For COC(=O)C(C)Sc1nc2c(c(=O)[nH]c(=O)n2C)n1CCC(C)C (stereo not drawn) the results were A488 autofl inactive, TSHR agonist 9%, AID923 1.9%, A647 fluor 2e-08 and Resorufin fluor inactive.
Cc1noc(C)c1CSCC(=O)OCc1nc2ccccc2c(=O)n1CC#N was read as A488 autofl inactive, TSHR agonist -2%, AID923 2.3%, A647 fluor 1e-08 and Resorufin fluor inactive.
For CC(C)n1c(C(O)c2ccc3c(c2)OCO3)nc2ccccc21 (stereo not drawn) the results were TSHR agonist 14% and AID923 0.1%.
For CCc1nc2oc3ccccc3c(=O)c2c(=O)n1Cc1ccccc1 the results were A488 autofl inactive, TSHR agonist 8%, AID923 -0.7%, A647 fluor 1.6e-09 and Resorufin fluor inactive.
For CCc1ccc2oc(-c3cc(N)ccc3Cl)nc2c1 the results were A488 autofl inactive, TSHR agonist -19%, AID923 1.1%, A647 fluor 1.1e-08 and Resorufin fluor inactive.
Screening CCOCC(=O)Nc1nnc(SCCOC)s1 returned A488 autofl inactive, TSHR agonist -6%, AID923 1.1%, A647 fluor 1.1e-08 and Resorufin fluor inactive.
Screening CC1CCCCC1NC(=O)CC1Oc2ccccc2NC1=O (stereo not drawn) returned TSHR agonist 6% and AID923 -1.0%.
For O=C1CC(N2CCCCCC2)C(=O)N1c1ccc2c(c1)OCO2 (stereo not drawn) the results were A488 autofl inactive, AID923 -0.7%, A647 fluor 9.9e-09 and Resorufin fluor inactive.
Screening CCOc1cc(C(=O)N2CCCC2)cc(OCC)c1OCC returned A488 autofl inactive, TSHR agonist 4%, AID923 -0.6%, A647 fluor 1.3e-08 and Resorufin fluor inactive.
For O=c1cnc2cnc(Nc3ccccc3)nc2n1C1CC1 the results were A488 autofl inactive, TSHR agonist -6%, AID923 2.9%, A647 fluor 4.7e-09 and Resorufin fluor inactive.
`Cn1c(NCc2ccccc2Cl)nc2ccccc21` gave TSHR agonist 2% and AID923 -0.1%.
O=C(c1ccco1)N1CCN(c2nc(C(F)(F)F)nc3c2nnn3Cc2ccccc2)CC1 was read as A488 autofl inactive, TSHR agonist inconclusive, AID923 1.9%, A647 fluor 3.6e-08 and Resorufin fluor inactive.
`CC1(C)CC(=O)N(CC(=O)O)c2ccccc2S1` gave A488 autofl inactive, TSHR agonist -4%, AID923 -0.8%, A647 fluor 2.1e-09 and Resorufin fluor inactive.
`COc1ccc(OC)c(C(=O)Cn2nnc3ccccc3c2=O)c1` gave A488 autofl inactive, TSHR agonist 1%, AID923 0.8%, A647 fluor 8e-09 and Resorufin fluor inactive.
Screening C=CCOC(=O)C1=C(C)NC2(O)c3ccccc3C(=O)C12O (stereo not drawn) returned A488 autofl inactive, TSHR agonist 7%, AID923 -2.4%, A647 fluor 5.2e-09 and Resorufin fluor inactive.
`CC1(C)Cc2c(oc3ncn4ncnc4c23)CO1` gave A488 autofl inactive, A647 fluor 1e-09 and Resorufin fluor inactive.
`O=c1[nH]c(=S)[nH]nc1Cc1ccccc1` gave A488 autofl inactive, TSHR agonist 10%, AID923 -3.2%, A647 fluor 1e-09 and Resorufin fluor inactive.
For O=C(O)CCCC(=O)N(Cc1ccccc1)Cc1ccccc1 the results were TSHR agonist 19%[11.4 µM] and AID923 2.2%.
CC(C)Oc1ccc(C(=O)N2CCCc3ccccc32)cc1 was read as TSHR agonist inconclusive and AID923 -3.0%.
`NC(=O)c1ccccc1NC(=O)c1ccccc1F` gave TSHR agonist -6% and AID923 0.4%.
`O=C(Nc1ccccc1)N1CCCC(c2nc(-c3cccs3)no2)C1` (stereo not drawn) gave A488 autofl inactive, TSHR agonist 17%, AID923 -0.9%, A647 fluor 1e-09 and Resorufin fluor inactive.
Screening O=C(Nc1ccc2c(c1)OCO2)c1noc2c1CCCCC2 returned A488 autofl inactive, TSHR agonist inconclusive, AID923 0.4%, A647 fluor 1.5e-08 and Resorufin fluor inactive.
`CCOC(=O)C(C)n1cnc2sc3c(c2c1=O)CCC3` (stereo not drawn) gave TSHR agonist 6% and AID923 0.9%.
Screening CCN1C(C)=C(C(=O)OC)C(c2ccccc2)N2C(=O)[C@](O)(C(=O)OC)C(c3ccccc3)C(C(=O)c3ccccc3)=C12 (stereo partly drawn) returned TSHR agonist inconclusive and AID923 -2.8%[11.5 µM].
For CCC(C)NC(=O)C1(C)CCC(=O)N1Cc1ccccc1OC (stereo not drawn) the results were A488 autofl inactive, TSHR agonist 2%, AID923 -0.1%, A647 fluor 2.7e-08 and Resorufin fluor inactive.
`CCCn1c(=O)c2[nH]c(-c3ccc(S(=O)(=O)O)cc3)nc2n(CCC)c1=O` gave A488 autofl inactive, AID923 -1.3%, A647 fluor 1.7e-08 and Resorufin fluor inactive.
Screening COc1ccc(CNc2cc(C)ccc2C)c(OC)c1OC returned A488 autofl inactive, TSHR agonist 23%, AID923 -2.6%, A647 fluor 3.5e-09 and Resorufin fluor inactive.
`CCNc1nc(SCCOc2ccccc2)nc(N(C)C)n1` gave A488 autofl inactive, TSHR agonist inconclusive, AID923 -0.5%, A647 fluor 6.5e-09 and Resorufin fluor inactive.

Arranged by number of heavy atoms (lowest first): 6 of the compounds above.
`NC(=O)c1ccccc1NC(=O)c1ccccc1F` gave TSHR agonist -6% and AID923 0.4%.
`CCOC(=O)C(C)n1cnc2sc3c(c2c1=O)CCC3` (stereo not drawn) gave TSHR agonist 6% and AID923 0.9%.
`CCNc1nc(SCCOc2ccccc2)nc(N(C)C)n1` gave A488 autofl inactive, TSHR agonist inconclusive, AID923 -0.5%, A647 fluor 6.5e-09 and Resorufin fluor inactive.
For CCC(C)NC(=O)C1(C)CCC(=O)N1Cc1ccccc1OC (stereo not drawn) the results were A488 autofl inactive, TSHR agonist 2%, AID923 -0.1%, A647 fluor 2.7e-08 and Resorufin fluor inactive.
`O=C(Nc1ccccc1)N1CCCC(c2nc(-c3cccs3)no2)C1` (stereo not drawn) gave A488 autofl inactive, TSHR agonist 17%, AID923 -0.9%, A647 fluor 1e-09 and Resorufin fluor inactive.
Screening CCN1C(C)=C(C(=O)OC)C(c2ccccc2)N2C(=O)[C@](O)(C(=O)OC)C(c3ccccc3)C(C(=O)c3ccccc3)=C12 (stereo partly drawn) returned TSHR agonist inconclusive and AID923 -2.8%[11.5 µM].

Source: PubChem (National Center for Advancing Translational Sciences (NCATS))
